FGF22 binding – binders of human FGF22 protein, primary screen, FGF22 synaptogenesis inhibitor project, biophysical, thermal shift, single point | recombinant FGF22 thermal shift, SYPRO orange fluorescence; percent of sucrose octasulfate shift, DMSO zero | calls only at 9.99 µM | 340,000 tested, 1.5% active | AID 651658, 2012;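 active = melting point raised past a set limit in the mean and every replicate; inconclusive = no clear call; three in four hits are not shown here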
Target sequence (Q9HCT0 whole entry, looked up): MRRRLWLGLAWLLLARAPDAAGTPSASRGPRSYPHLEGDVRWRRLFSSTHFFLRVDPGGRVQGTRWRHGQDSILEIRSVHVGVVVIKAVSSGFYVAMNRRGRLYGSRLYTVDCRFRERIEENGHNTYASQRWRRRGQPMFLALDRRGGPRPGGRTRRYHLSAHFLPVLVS
HNF4A DNA FP – change in binding of human HNF4A to DNA, primary screen, biochemical, fluorescence polarization, FITC-DNA; Hepatocyte nuclear factor 4-alpha (Homo sapiens), P41235; 1 h; activity change, % at 10 µM; 360,000 tested, 0.3% active; in the data active = activity change above about 30%, passing the limit was not always enough;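 also: controls were the assay level and a saturating level of protein; the project sought stronger binding though the title names inhibitors; some compounds called inactive have numbers as strong as hits; positive values seem to mean higher polarization but the record does not say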
Target sequence (P41235 whole entry, looked up): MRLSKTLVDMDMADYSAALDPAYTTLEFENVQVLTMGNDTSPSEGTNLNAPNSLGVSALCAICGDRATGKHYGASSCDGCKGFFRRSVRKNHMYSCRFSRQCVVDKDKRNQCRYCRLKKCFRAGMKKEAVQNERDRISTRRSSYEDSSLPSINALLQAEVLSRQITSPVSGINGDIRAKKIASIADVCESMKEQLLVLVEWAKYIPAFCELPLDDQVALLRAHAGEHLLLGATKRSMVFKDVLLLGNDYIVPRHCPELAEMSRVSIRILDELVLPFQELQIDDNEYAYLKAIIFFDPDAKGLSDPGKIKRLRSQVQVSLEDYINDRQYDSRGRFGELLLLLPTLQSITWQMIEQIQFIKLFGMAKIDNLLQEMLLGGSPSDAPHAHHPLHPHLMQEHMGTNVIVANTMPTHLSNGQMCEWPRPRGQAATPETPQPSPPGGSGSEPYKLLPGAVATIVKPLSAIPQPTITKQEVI
E coli growth – E. coli growth inhibition, primary screen, OD600; Escherichia coli growth, 23 h; hits give low values; 330,000 tested, 0.21% active; OD600 absorbance (no concentration beside the values);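 active = OD600 absorbance below the run mean of sample wells minus 3.6 SD, in any replicate, cut at about 0.56 in these data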;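 also: stock transfer was 300 nL into about 60 µL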
ALR inh – inhibitors of human ALR sulfhydryl oxidase, primary screen, biochemical, H2O2 detection, HRP-luminol luminescence, single point; 290,000 tested, 3.8% active; FAD-linked sulfhydryl oxidase ALR (Homo sapiens), P55789; purified ALR, DTT oxidation; inhibition, % (concentration not given with the values);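 active = mean and each replicate at 75% or more; inconclusive = only one of the two met; inactive = neither met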;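 also: stock transfer was 7.5 nL into about 7.5 µL; 0% = neutral wells and 100% = wells with inactivated enzyme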
Target sequence (P55789 whole entry, looked up): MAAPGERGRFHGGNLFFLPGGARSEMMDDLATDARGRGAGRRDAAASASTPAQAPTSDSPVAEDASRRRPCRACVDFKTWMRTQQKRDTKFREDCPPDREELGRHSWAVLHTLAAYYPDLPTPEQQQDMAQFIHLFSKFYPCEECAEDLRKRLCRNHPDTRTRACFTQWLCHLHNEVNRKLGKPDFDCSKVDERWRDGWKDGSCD
AF4-AF9 inh – inhibitors of AF4 peptide binding to AF9, primary screen, biochemical, AlphaScreen, biotin-AF4 peptide, FLAG-AF9, single point; inhibition, % at 10 µM; 350,000 tested, 0.47% active;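 active = every replicate reaching a set inhibition limit, whatever the replicate mean, cut at about 25% in these data; inconclusive = mean inhibition reaches that limit but some replicates miss it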;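 also: 0% = plate neutral control median and 100% = total signal loss; the record names both 10 and 1 µM as test concentration; the first replicate is given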
Vif TR-FRET – inhibitors of Vif binding to APOBEC3G peptide, primary screen, biochemical, TR-FRET, GST-Vif 1-94, biotin-A3G peptide, dose response retest (AID 1117319) | Virion infectivity factor (Human immunodeficiency virus type 1 group M subtype B (isolate … | TR-FRET GST-Vif / biotin-A3G peptide binding; higher % means a stronger effect; test concentration not given here; strong numbers were not always called active | inhibition, %, or IC50 in µM where a hit was titrated | 260,000 tested, 0.57% active;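 active = above the screen mean plus three standard deviations and confirmed in dose response; inconclusive = results disagree or hit not tested in dose response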;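 also: Vif residues 1-94 fused to GST binding biotinylated APOBEC3G peptide 110-148; 0% = full assay without inhibitor and 100% = GST in place of GST-Vif; retest series ran down from 100 µM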
rRNA inh HTS – reduced GFP signal of wild-type E. coli, primary screen, bacterial rRNA inhibitor project, GFP/RFP fluorescence, OD600, single point; GFP signal change (wild-type ribosome), % (no concentration beside the values); 350,000 tested, 1.6% active; E. coli WT GFP vs humanized-ribosome RFP mutants, 24 h; hits give low values; DMSO median 0, no signal -100;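 active = significant combined selectivity score with lowered wild-type GFP, culture density cut under 30%, mutant RFP and density less affected; inactive = any of these conditions unmet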; also: one replicate is shown; some compounds called inactive have numbers as strong as hits
rRNA inh HTS OD600 – also measured in rRNA inh HTS; calls as there; OD600 change, %; measured here: OD600 growth;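 optical density of the mix in the first replicate; 0 = DMSO median and -100 = no signal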
rRNA inh HTS RFP – further read-out of rRNA inh HTS, marked with its call; RFP signal change, %; measured here: RFP humanized mutant strains;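 first replicate; 0 = DMSO median and -100 = no signal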
* hit, by the source's call; i = inactive; ? = inconclusive; · = not tested or not shown; & = joins results of further samples. The list is partial; rates above refer to the full screens.

Results follow in this order: FGF22 binding	HNF4A DNA FP	E coli growth	ALR inh	AF4-AF9 inh	Vif TR-FRET	rRNA inh HTS	rRNA inh HTS OD600	rRNA inh HTS RFP
CCN(CCO)Cc1csc2cc(C)ccc12
    i	-0.9	0.67	-2	2.1	0%	15	-3	-2.9
CCOc1ccc(OCCCC(=O)Nc2nc3ccccc3[nH]2)cc1
    ·	1.9	0.71	·	-0.4	2%	25	25	0.3
COc1ccc(S(=O)(=O)Nc2ccc3c(c2)C(=O)N([C@H](C)CO)C[C@H](C)[C@H](CN(C)S(=O)(=O)c2c(C)noc2C)O3)cc1
    i	·	·	·	1.5	·	-1	1	-0.2
COc1ccc(C(C)=O)cc1CSc1nnc(Nc2ccc(C)cc2)s1
    i	4.5	0.67	-4	-10	·	-22	-26	-9.3
COCCNC(=O)C1CCCN(S(=O)(=O)c2cccc3nsnc23)C1 (centres undefined)
    i	-1.8	0.69	0	-4.5	·	3	4	-2.8
Cc1ccc(CNC(=O)c2ccc(N3CCC4(CC3)CC(c3ccccc3)=NO4)c(NC(=O)c3ccc(Cl)c([N+](=O)[O-])c3)c2)cc1
    i	-3.9	0.81	-1	-2.2	·	14	17	2.3
CCn1c(=O)c(C(=O)Nc2ccccn2)c(O)c2ccccc21
    i	-0.9	0.68	4	-0.5	·	11	15	1.6
Cc1c(C(=O)c2ccc(F)cc2F)c2ccccn2c1CCC#N
    i	-10	·	·	7.7	·	-4	-18	2.9
O=C(C[C@H]1CC[C@H](NS(=O)(=O)c2cccc(F)c2)[C@H](CO)O1)NCc1ccc2c(c1)OCO2
    i	·	·	·	-0.5	·	3	2	1.6
COc1cccc(-n2c(SCC(=O)NC3CCCC3)nnc2-c2ccco2)c1
    ·	1.9	0.75	2	·	-6%	·	·	·
C[C@H](CO)N1C[C@H](C)[C@@H](CN(C)S(=O)(=O)c2ccc(F)cc2)Oc2c(NC(=O)C3CC3)cccc2C1=O
    i	·	·	·	-1.3	·	0	-2	-1.9
N#Cc1ccccc1OCC(=O)OCC(=O)N1CCCC1
    i	1.6	0.7	-1	-1.5	-8%	3	4	-3.6
COc1ccc(C2=Cc3ccccc3C(CC(=O)C3CC3)N2c2ccc(-c3cc(OC)c(OC)c(OC)c3)cc2)cc1 (centres undefined)
    i	4.4	·	·	0.1	·	-28	-34	-6.6
COCCNc1nc(C)c(C(C)=O)s1
    i	1.7	·	-7	-0.6	32%	13	6	1.3
Cn1nc2c(c1C(=O)O)CCCC2
    ·	-18	0.72	4	·	11%	·	·	·
CC(=O)Nc1ccc(NC(=O)COc2ccc(-c3ccc(C#N)cc3)cc2)cc1
    i	0.3	·	0	-16	·	1	12	-0.2
COc1cc2c(cc1OC)C(C)N(C(=O)CCc1c[nH]c3ccccc13)CC2 (centres undefined)
    i	1.0	0.66	-1	-4.6	0%	1	3	-0.2
CO/N=C/CC(=O)c1ccc(OC)cc1
    i	-1.6	·	2	-3.1	2%	-3	3	-2.9
CCOC(=O)c1c(N)sn(-c2ccccc2)c1=S
    ·	-1.1	0.71	52	·	-4%	·	·	·
CN(c1cccc(NC(=O)c2ccccc2N(C)S(C)(=O)=O)c1)S(C)(=O)=O
    ·	4.1	0.69	-3	·	1%	·	·	·
Cc1ccc(/C=C(\NC(=O)c2ccccc2)C(=O)N2CCCC2C(=O)O)cc1 (centres undefined)
    i	3.2	0.71	5	-1.8	-3%	5	9	1.8
NC(=O)[C@@H]1CCCN1Cc1c(C(=O)N2CCc3ccccc3C2)nc2ccc(Cl)cn12
    i	-7.5	0.69	1	0.1	·	4	8	4.6
CCOc1cnc(-c2c(-c3c(F)cccc3Cl)noc2C)o1
    i	-5.1	0.68	-2	-0.1	-2%	-14	-8	-1.2
Cc1ccc2c(c1)N(C(C)C(=O)NCc1cccs1)C(=O)CO2 (centres undefined)
    i	-3.2	0.71	-1	-18	14%	9	0	-2.1
CCOC(=O)Nc1ccc2c(C)cc(=O)oc2c1
    ·	-1.4	0.65	1	·	0%	·	·	·
CN(C)CCCn1c(=O)n(C2CCCCC2)c(=O)c2c3c(sc21)CCCCC3
    i	-1.1	0.66	4	28*	·	0	-6	12
CCc1nc2c(C#N)c(-c3ccc(Cl)cc3)ccn2n1
    ·	0.9	0.72	14	·	1%	·	·	·
COC(=O)C1C/C(=N\NS(=O)(=O)c2ccc(C)cc2)c2ccccc2C1 (centres undefined)
    i	-1.8	·	5	-6.7	·	-13	-19	4.2
CCCCn1c(-c2cccs2)nc2nc3ccccc3nc21
    ·	3.0	0.71	-5	·	-7%	·	·	·
C[C@@H]1CN([C@H](C)CO)C(=O)c2cc(C#Cc3cccnc3)cnc2O[C@@H]1CN(C)S(C)(=O)=O
    i	·	·	·	-2.8	·	3	13	-1.8
CCCC(=O)Nc1ccc(N2CCN(C(=O)c3cccs3)CC2)cc1
    ·	2.4	0.7	-15	·	14%	·	·	·
CCOc1ccc(NS(=O)(=O)c2ccc(C(=O)NCC3(N4CCCCC4)CCCCC3)cc2)cc1
    i	1.2	0.72	1	6.0	1%	11	12	2.7
COc1ccc(S(=O)(=O)N(C)C[C@H]2Oc3ccc(NC(=O)Nc4ccc(C(F)(F)F)cc4)cc3C(=O)N([C@@H](C)CO)C[C@H]2C)cc1
    i	·	·	·	-2.3	·	0	-2	2.7
O=C(NCC1CCCO1)c1cc(NS(=O)(=O)c2cccs2)cc(NS(=O)(=O)c2cccs2)c1 (centres undefined)
    i	3.1	0.68	-4	4.7	-4%	6	-2	-2.3
COC(=O)c1c2c(nc3ccccc13)CCC2
    ·	4.5	0.72	·	·	10%	·	·	·
Cn1ncc(Br)c1C(=O)N1CCCC1
    i	-13	·	-8	-0.7	-14%	13	5	1.1
OCCSc1nc(N2CCOCC2)nc(N2CCOCC2)n1
    i	-0.7	0.74	0	-0.8	12%	5	2	-2.0
C[C@@H]1CN([C@@H](C)CO)C(=O)c2cc(NS(C)(=O)=O)ccc2O[C@@H]1CN(C)Cc1ccncc1
    i	·	·	·	-11	·	2	7	-0.8
CC(=O)Nc1nnc(S(N)(=O)=O)s1
    i	0.4	0.67	-9	-0.3&-5.6	?	·	·	·
O=C(NN1CCOCC1)c1ccco1
    i	-1.4	0.69	·	-1.6	7%	21	7	5.8
O=C(Cc1ccccc1)N[C@H]1C=C[C@@H](CC(=O)N2CCCCC2)O[C@H]1CO
    i	·	·	·	-15	·	6	9	1.0
Clc1ccc(-c2nnc(SCc3nc4ccccc4s3)o2)cc1
    i	1.9	0.74	-2	1.1	·	10	2	2.1
CO[C@H]1CN(C)C(=O)c2ccc(NS(=O)(=O)c3cn(C)cn3)cc2OC[C@H](C)N(Cc2cccc(F)c2)C[C@H]1C
    i	·	·	·	0.3	·	-9	-10	4.9
O=[N+]([O-])c1ccc(-c2cn(-c3ccc(Cl)cc3)cn2)cc1
    i	40*	·	·	-0.5	·	-2	2	1.4
COc1cc(C(=O)NCCNC(=O)c2ccc(C)nc2)cc(OC)c1OC
    i	0.8	0.62	5	-5.8	·	8	7	-2.1
O=C(NCc1ccco1)/C(=C/c1cccc([N+](=O)[O-])c1)NC(=O)c1ccco1
    i	2.4	0.67	70	-1.8	2%	1	14	-1.7
CCCCOC(=O)C1=C(C)NC(=O)NC1c1ccc(OC)cc1 (centres undefined)
    i	0.6	0.72	·	-3.0	-5%	-12	-14	1.9
Cc1nnc(N/N=C/c2ccc(-c3ccc(Br)cc3)o2)n1N
    i	-0.2	·	25	0.9	1%	-18	-8	-14
O=C(Nc1ccc2c(c1)Cc1ccccc1-2)c1cc2ccccc2o1
    ·	3.0	0.7	-12	·	-3%	·	·	·
CCOC(=O)CNC(=O)C(=O)c1c(O)[nH]c2ccccc12
    ·	2.1	0.73	29	·	6%	·	·	·

Continued.
Results follow in this order: FGF22 binding	HNF4A DNA FP	E coli growth	ALR inh	AF4-AF9 inh	Vif TR-FRET	rRNA inh HTS	rRNA inh HTS OD600	rRNA inh HTS RFP
CCC(Oc1ccccc1)C(=O)NCc1ccc(S(N)(=O)=O)cc1 (centres undefined)
    ·	-3.5	0.74	·	·	-1%	·	·	·
Cc1[nH]c2ccccc2c1C(=O)C(=O)NCCc1ccc(S(N)(=O)=O)cc1
    ·	-1.8	0.6	-19	·	-6%	·	·	·
Cc1noc(C)c1S(=O)(=O)N(C)C[C@@H]1Oc2ccc(NC(=O)NC3CCCCC3)cc2CC(=O)N([C@H](C)CO)C[C@H]1C
    i	·	·	·	-1.7	·	-3	-6	-0.7
NCC[C@@H]1CC[C@@H](NC(=O)Cc2ccncc2)[C@H](CO)O1
    i	·	·	·	1.7	·	5	3	-2.4
C[C@H](CO)N1C[C@H](C)[C@@H](CN(C)Cc2ccc(Oc3ccccc3)cc2)Oc2ccc(NS(=O)(=O)c3cn(C)cn3)cc2CC1=O
    i	·	·	·	14	·	-35	-67	12
Fc1ccc(OCc2nn[nH]n2)c(F)c1
    i	-0.5	0.69	-3	0.6	·	9	8	3.3
CCOC(=O)N1CCN(C(=O)C[C@H]2C[C@@]3(C(=O)OC)C(=C[C@H](COCc4ccccc4)O[C@@H]3C)N(Cc3ccc4c(c3)OCO4)C2=O)CC1
    i	·	·	·	3.2	·	-9	-13	5.5
COCC#Cc1ccc2c(c1)O[C@H](CN(C)CC1CC1)[C@H](C)CN([C@@H](C)CO)S2(=O)=O
    i	·	·	·	1.6	·	4	4	-0.7
COc1cc(-c2cccs2)cc(=O)c2c(C)oc(C)c12
    ·	-11	0.67	-2	-3.7	3.5µM*	-1	-3	5.7
COc1ccc(-c2noc(CCCC(=O)NC3CCCC3)n2)cc1OC
    i	-0.3	0.67	5	-8.6	·	18	12	0.0
Cc1ccc(S(=O)(=O)CCC(=O)O)cc1C
    ·	-5.3	0.7	-5	·	·	·	·	·
Cc1ccc(C(=O)NCCCNC(=O)c2cccnc2)cc1
    i	4.2	0.68	-18	-0.6	·	-1	4	-0.9
CC1(C)C(=O)Nc2ccccc2N1C(=O)COC(=O)CCSc1ccccc1
    ·	3.0	0.69	-16	·	10%	·	·	·
C=CCn1c(O)c(C2=c3ccccc3=NC2=O)c2ccccc21
    i	-0.6	0.68	-5	1.9	·	8	4	0.5
C[C@@H]1CN([C@@H](C)CO)C(=O)Cc2cc(NS(=O)(=O)c3ccc(F)cc3)ccc2O[C@@H]1CN(C)S(=O)(=O)c1cn(C)cn1
    i	·	·	·	0.1	·	5	6	-2.1
Cc1csc(CN(C)C(=O)CC2C(=O)NCCN2Cc2ccccc2C)n1 (centres undefined)
    i	-0.8	·	·	-0.8	2%	5	4	2.4
COc1ccc2nc(NC(=O)c3cc(C)oc3C)sc2c1
    ·	-0.1	0.71	-7	·	-4%	·	·	·
C[C@@H]1CN([C@H](C)CO)C(=O)c2cc(C3=CCCCC3)cnc2O[C@H]1CN(C)Cc1ccccc1
    i	·	·	·	6.2	·	4	1	-0.6
COc1cc(OC)c(OC)cc1/C=C1/Cc2ccccc2C1=O
    i	-48	0.67	-36	-3.3	-19%	9	10	-1.0
